Bioassay records deposited in PubChem by National Center for Advancing Translational Sciences (NCATS).
Vif-APOBEC3G blk = Vif-A3G binding inhibition | Q9HC16 | HeLa A3G-eYFP + Vif (tagged APOBEC3G with the HIV-1 protein that degrades it), YFP fluorescence, overnight | Potency, µM (top dose mostly 46.1 µM), without a hit: at the highest dose activity, negative = active, actives largely listed as inhibitors | 0.076% of 410,000 active;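 note: % is set by controls: 0 for no effect and ±100 for the full control effect; nearly all actives have a fitted effect of over 60% in size; hits raise eYFP signal because A3G escapes Vif-driven loss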
Target sequence (Q9HC16 whole entry, looked up): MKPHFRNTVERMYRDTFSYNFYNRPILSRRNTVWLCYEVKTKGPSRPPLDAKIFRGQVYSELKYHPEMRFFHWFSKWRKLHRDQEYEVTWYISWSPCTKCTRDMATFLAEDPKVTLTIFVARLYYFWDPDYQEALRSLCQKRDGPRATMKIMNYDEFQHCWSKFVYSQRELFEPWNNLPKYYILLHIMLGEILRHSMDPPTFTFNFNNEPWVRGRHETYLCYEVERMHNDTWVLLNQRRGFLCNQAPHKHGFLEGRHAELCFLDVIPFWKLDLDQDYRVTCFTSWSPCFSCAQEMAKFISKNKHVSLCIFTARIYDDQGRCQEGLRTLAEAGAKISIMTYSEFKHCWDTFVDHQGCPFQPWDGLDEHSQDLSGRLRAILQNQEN
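Read-out is eYFP fluorescence (Ex 488/Em 500-530) from Vif-expressing HeLa A3G-eYFP cells; more signal means A3G escaped Vif-mediated degradation. Cells plated overnight, compound pinned in, incubated overnight at 37 deg C.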
Vif-A3F inh = Vif-A3F binding inhibition | 0.2% of 390,000 active | Potency, µM (top dose mostly 46.1 µM), for the others: at the highest dose activity, negative = active | HeLa A3F-eYFP + Vif (tagged APOBEC3F with the HIV-1 protein that degrades it), YFP fluorescence increase; note: % of control where 0% means no effect; nearly all actives have a fitted effect of over 65% in size
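HeLa cells stably expressing Vif plus C-terminally eYFP-tagged A3F were seeded, incubated overnight at 37 deg C, dosed with compound, incubated overnight again at 37 deg C. Yellow fluorescence (Ex 488/Em 500-530) reported blocked Vif-mediated A3F-eYFP degradation.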
RGS4 inh = blocks human RGS4-accelerated GTP hydrolysis; P49798; Transcreener GDP fluorescence polarization, RGS4-accelerated GTP hydrolysis; AID 504845; 0.039% of 390,000 active; Potency, µM (doses to about 114 µM), for inactives: at the highest dose activity change, negative = inhibition, hits mostly inhibitors; note: % is set by controls: 0 for no effect and ±100 for the full control effect; nearly all actives have a fitted effect of over 75% in size; some results filed as inactive show a strong effect at the top dose
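MLSMR compounds (23 nl, pin-transferred) preincubated 10 min at room temperature with a 500nM (2x) first reagent, then RGS4 at 900nM (2x) plus Transcreener GDP mix added; fluorescence polarization (620/688 nm) read before and after 90 min at 30 °C.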
USP1-UAF1 inh = inhibitors of human USP1/UAF1 deubiquitinase; recombinant USP1/UAF1, Ub-Rhodamine cleavage fluorescence; Potency, µM (doses to about 57.1 µM), for inactives: at the highest dose activity change, negative = inhibition, usual class: inhibitors; 0.23% of 390,000 active; note: % is set by controls: 0 for no effect and ±100 for the full control effect; nearly all actives have a fitted effect of over 60% in size; inactives centre near -12
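Step one: compound is pinned into 1nM USP1/UAF1 in HEPES pH 7.8 buffer with TCEP. Step two: 15 min room-temperature incubation. Step three: Ub-Rho (150nM final) starts cleavage, tracked by fluorescence over six one-minute reads.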
mIDH1 inhibitor = human IDH1 R132H inhibition | Potency, µM (top dose mostly 76.6 µM), without a hit: at the highest dose activity change, negative = inhibition, hits mostly inhibitors | 0.093% of 390,000 active | O75874 | IDH1-R132H enzyme, NADPH consumption, diaphorase/resazurin fluorescence; note: % is set by controls: 0 for no effect and ±100 for the full control effect; nearly all actives have a fitted effect of over 65% in size
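IDH1-R132H (0.5 ug/mL) preincubated 30 min with compound, then NADPH (0.016 mM) and alpha-KG (2 mM) added; 80 min at RT, pH 7.5. Remaining NADPH coupled via diaphorase/resazurin to fluorescence (540/590 nm); concentration-response curves normalized to no-enzyme control.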
TrxR1 inh = rat TrxR1 inhibition | O89049 | recombinant rTrxR1, NADPH fluorescence consumption, selenite substrate | Potency, µM (highest dose often 114 µM), for inactives: top-dose activity change, negative = inhibition, hits mostly inhibitors | 1% of 390,000 active | AID 588453; note: % is set by controls: 0 for no effect and ±100 for the full control effect; nearly all actives have a fitted effect of over 65% in size
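Rat TrxR1 (90 nM in the dispensed reagent) was pre-reduced with 400 uM NADPH for 5 min at room temperature, then incubated with compound for 15 min. After 400 uM selenite was added, NADPH fluorescence (Ex 340/Em 450 nm) was followed for 8 min.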
ALOX12 inh = blocks human arachidonate 12S-lipoxygenase. P18054. purified 12hLO, xylenol orange hydroperoxide absorbance. Potency, µM (titrated, usually from 108 µM), for inactives: at the top dose activity change, negative = inhibition, actives largely listed as inhibitors. 1.1% of 580,000 active; note: % is set by controls: 0 for no effect and ±100 for the full control effect
Target sequence (P18054 whole entry, looked up): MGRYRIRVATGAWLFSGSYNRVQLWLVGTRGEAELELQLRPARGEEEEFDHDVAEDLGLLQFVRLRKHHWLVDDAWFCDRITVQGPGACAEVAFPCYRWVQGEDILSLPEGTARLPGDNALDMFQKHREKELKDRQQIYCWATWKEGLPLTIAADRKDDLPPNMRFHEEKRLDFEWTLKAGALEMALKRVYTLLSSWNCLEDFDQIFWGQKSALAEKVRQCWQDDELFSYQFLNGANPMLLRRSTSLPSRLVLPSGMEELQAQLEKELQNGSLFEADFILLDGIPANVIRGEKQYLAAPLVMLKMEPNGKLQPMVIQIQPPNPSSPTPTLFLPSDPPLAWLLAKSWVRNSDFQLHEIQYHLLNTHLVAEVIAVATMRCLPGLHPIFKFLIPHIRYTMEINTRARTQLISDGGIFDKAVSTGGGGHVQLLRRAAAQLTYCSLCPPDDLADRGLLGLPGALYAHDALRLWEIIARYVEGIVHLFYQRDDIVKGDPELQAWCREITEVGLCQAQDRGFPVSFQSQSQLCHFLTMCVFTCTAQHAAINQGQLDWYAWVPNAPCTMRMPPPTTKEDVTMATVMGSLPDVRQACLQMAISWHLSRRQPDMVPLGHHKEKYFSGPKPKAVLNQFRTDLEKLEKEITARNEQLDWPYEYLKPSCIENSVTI
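Purified human 12hLO at 150 nM in 25 mM Hepes, 0.01% Triton X-100, pH 7.0, preincubated 15 min at room temperature with compound. Reaction started with 40 uM arachidonic acid, 30 min at room temperature. Hydroperoxide measured by Fe-xylenol orange, 573/405 nm absorbance ratio.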
TrxR1 substrate = rat thioredoxin reductase 1 substrate activity; 0.01% of 390,000 active; O89049; AID 588456; Potency, µM (doses to about 114 µM), for inactives: at the top dose activity change, negative = substrate turnover; purified TrxR1 substrate turnover, NADPH consumption readout; note: % is set by controls: 0 for no effect and ±100 for the full control effect; nearly all actives have a fitted effect of over 50% in size
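Rat TrxR1, dispensed at 90 nM, was prereduced with 400 uM NADPH (final) for 5 min at ~22 deg C, then incubated with compound 15 min before 400 uM selenite. A first-read NADPH fluorescence drop versus no-compound background flagged substrates.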
Active calls of the source: *; [ ] = dose if it differs, or a comment. Calls come from the whole dose curve; as a rule, active = well fitted curve in the direction sought with a large enough effect; inconclusive = small, poorly fitted or top-dose-only effect, or another doubt; inactive = no such curve, though single readings can be large; an effect the other way counts as inactive or inconclusive. Potency is the fitted concentration of half-maximal effect. These rows are one share of the data; the hit share may differ from the screen's.

Cc1ccc(OCC(=O)Nc2ccccc2C(=O)OCc2cc(=O)n3c(C)csc3n2)cc1 was read as Vif-APOBEC3G blk -3%, Vif-A3F inh 1%, RGS4 inh 8%, USP1-UAF1 inh 5%, mIDH1 inhibitor 4%, TrxR1 inh -1%[57.1 µM], ALOX12 inh -26% and TrxR1 substrate 1%[57.1 µM].
`Cc1sc2nc(CN3CCCC3)nc(N3CCN(C(=O)c4ccco4)CC3)c2c1C` gave Vif-APOBEC3G blk 5%, Vif-A3F inh 8%, RGS4 inh -24%, USP1-UAF1 inh -13%, mIDH1 inhibitor 0%, TrxR1 inh 11%, ALOX12 inh 2% and TrxR1 substrate 10%.
`Cc1nnc(NC(=O)CSc2ccc([N+](=O)[O-])cn2)s1` gave Vif-APOBEC3G blk 1%, Vif-A3F inh 9%, RGS4 inh -18%, USP1-UAF1 inh -13%, mIDH1 inhibitor -5%, TrxR1 inh -10%, ALOX12 inh 1% and TrxR1 substrate -7%.
For Cc1cc(Br)cc2c(C(=O)NCC3CCCO3)cc(-c3ccccc3)nc12 (centres undefined) the results were Vif-APOBEC3G blk -2%, Vif-A3F inh -14%, RGS4 inh 11%, USP1-UAF1 inh 0%, mIDH1 inhibitor 1%, TrxR1 inh -6%, ALOX12 inh 26% and TrxR1 substrate -10%.
Screening Cc1csc2nc(COc3ccc(NC(=O)COc4ccccc4)cc3)cc(=O)n12 returned Vif-APOBEC3G blk 4%, Vif-A3F inh -8%, RGS4 inh -8%, USP1-UAF1 inh -34%, mIDH1 inhibitor 6%, TrxR1 inh 4%, ALOX12 inh -27% and TrxR1 substrate 10%.
`CCc1cc2c(cc3c(=O)n(CC(=O)NCCCN4CC(C)CC(C)C4)ncn32)s1` (centres undefined) gave Vif-APOBEC3G blk 0%, Vif-A3F inh 0%, RGS4 inh 7%, USP1-UAF1 inh -5%, mIDH1 inhibitor -7%, TrxR1 inh 12%[57.1 µM], ALOX12 inh -1% and TrxR1 substrate 8%[57.1 µM].
`CCOc1ccccc1NC(=O)c1cn(C2CCCCC2)c(=O)c2c1c1ccccc1n2C` gave Vif-APOBEC3G blk 6%, Vif-A3F inh 2%, RGS4 inh 8%, USP1-UAF1 inh -9%, mIDH1 inhibitor -2%, TrxR1 inh 23%, ALOX12 inh -12% and TrxR1 substrate 8%.
Screening CCN(CC)S(=O)(=O)c1cccc(C(=O)NNC(=O)c2ccc3[nH]c(=O)c(=O)[nH]c3c2)c1 returned Vif-APOBEC3G blk 0%, Vif-A3F inh -2%, RGS4 inh -11%, USP1-UAF1 inh -12%, mIDH1 inhibitor 0%, TrxR1 inh 19%, ALOX12 inh -12% and TrxR1 substrate 12%.
For COc1ccc(CCNC(=O)Cc2c(C)c3cc4c(C)coc4cc3oc2=O)cc1OC the results were Vif-APOBEC3G blk -6%, Vif-A3F inh 8%, RGS4 inh -2%, USP1-UAF1 inh -22%, mIDH1 inhibitor 16%, TrxR1 inh 22%, ALOX12 inh inconclusive and TrxR1 substrate 4%.
For CC1Cc2cc(/C(O)=C3\C(=O)C(=O)N(Cc4ccncc4)C3c3ccccc3F)ccc2O1 (centres undefined) the results were Vif-APOBEC3G blk 5%, Vif-A3F inh 2%, RGS4 inh -4%, USP1-UAF1 inh -14%, mIDH1 inhibitor -7%, TrxR1 inh -1%, ALOX12 inh -6% and TrxR1 substrate -10%.
CC(=O)Nc1cccc(NC(=O)Cn2cnc3c2c(=O)n(C)c(=O)n3C)c1 was read as Vif-APOBEC3G blk 0%, Vif-A3F inh -5%, RGS4 inh 11%, USP1-UAF1 inh inconclusive, mIDH1 inhibitor 0%, TrxR1 inh 15%, ALOX12 inh -9% and TrxR1 substrate 1%.
CCCCc1nc2sc3c(SCC(=O)NCc4ccco4)ncnc3c2c2c1CCC2 was read as Vif-APOBEC3G blk -5%, Vif-A3F inh 4%, RGS4 inh -27%, USP1-UAF1 inh -16%, mIDH1 inhibitor 0%, TrxR1 inh -27%, ALOX12 inh inconclusive and TrxR1 substrate -10%.

Five compounds out of the list, ordered by heavy-atom count, high to low:
Cc1ccc(OCC(=O)Nc2ccccc2C(=O)OCc2cc(=O)n3c(C)csc3n2)cc1 was read as Vif-APOBEC3G blk -3%, Vif-A3F inh 1%, RGS4 inh 8%, USP1-UAF1 inh 5%, mIDH1 inhibitor 4%, TrxR1 inh -1%[57.1 µM], ALOX12 inh -26% and TrxR1 substrate 1%[57.1 µM].
Screening CCN(CC)S(=O)(=O)c1cccc(C(=O)NNC(=O)c2ccc3[nH]c(=O)c(=O)[nH]c3c2)c1 returned Vif-APOBEC3G blk 0%, Vif-A3F inh -2%, RGS4 inh -11%, USP1-UAF1 inh -12%, mIDH1 inhibitor 0%, TrxR1 inh 19%, ALOX12 inh -12% and TrxR1 substrate 12%.
CCCCc1nc2sc3c(SCC(=O)NCc4ccco4)ncnc3c2c2c1CCC2 was read as Vif-APOBEC3G blk -5%, Vif-A3F inh 4%, RGS4 inh -27%, USP1-UAF1 inh -16%, mIDH1 inhibitor 0%, TrxR1 inh -27%, ALOX12 inh inconclusive and TrxR1 substrate -10%.
For Cc1cc(Br)cc2c(C(=O)NCC3CCCO3)cc(-c3ccccc3)nc12 (centres undefined) the results were Vif-APOBEC3G blk -2%, Vif-A3F inh -14%, RGS4 inh 11%, USP1-UAF1 inh 0%, mIDH1 inhibitor 1%, TrxR1 inh -6%, ALOX12 inh 26% and TrxR1 substrate -10%.
`Cc1nnc(NC(=O)CSc2ccc([N+](=O)[O-])cn2)s1` gave Vif-APOBEC3G blk 1%, Vif-A3F inh 9%, RGS4 inh -18%, USP1-UAF1 inh -13%, mIDH1 inhibitor -5%, TrxR1 inh -10%, ALOX12 inh 1% and TrxR1 substrate -7%.

The list goes on:
Screening COc1ccc(OC)c(-n2c(-c3cc(-c4ccccc4)n[nH]3)n[nH]c2=S)c1 returned Vif-APOBEC3G blk -21%, Vif-A3F inh -11%, RGS4 inh inconclusive, USP1-UAF1 inh -22%, mIDH1 inhibitor 2%, TrxR1 inh inconclusive, ALOX12 inh -23% and TrxR1 substrate -11%.
Cc1ccc(NC(=O)c2sc3ncnc(N4CCN(c5ccccn5)CC4)c3c2C)c(C)c1 was read as Vif-APOBEC3G blk -6%, Vif-A3F inh -7%, RGS4 inh -17%, USP1-UAF1 inh -23%, mIDH1 inhibitor -7%, TrxR1 inh 49%[activator], ALOX12 inh -8% and TrxR1 substrate 23%.
COCCn1c(=NC(=O)CSCC(=O)NC2CCCCC2)sc2cc(OC)ccc21 was read as Vif-APOBEC3G blk 0%, Vif-A3F inh 2%, RGS4 inh -3%, USP1-UAF1 inh -13%, mIDH1 inhibitor -3%, TrxR1 inh 2%, ALOX12 inh -13% and TrxR1 substrate -1%.
CCOCCn1c(=NC(=O)CSCC(=O)N2CCOCC2)sc2cc(OC)ccc21 was read as Vif-APOBEC3G blk 0%, Vif-A3F inh 2%, RGS4 inh -13%, USP1-UAF1 inh -12%, mIDH1 inhibitor -14%, TrxR1 inh -2%, ALOX12 inh -18% and TrxR1 substrate 0%.
For Fc1ccccc1Cn1nnc2c(NCc3ccccn3)ncnc21 the results were Vif-APOBEC3G blk -3%, Vif-A3F inh 8%, RGS4 inh -22%, USP1-UAF1 inh -5%, mIDH1 inhibitor -4%, TrxR1 inh -6%, ALOX12 inh -1% and TrxR1 substrate -7%.
For O=C(CSc1cn[nH]n1)Nc1ccccc1F the results were Vif-APOBEC3G blk -1%, Vif-A3F inh -17%, RGS4 inh 10%, USP1-UAF1 inh -2%, mIDH1 inhibitor 7%, TrxR1 inh 27%, ALOX12 inh -4% and TrxR1 substrate 8%.
Screening Fc1ccc(CSc2ccc3nnc(-c4cccnc4)n3n2)cc1 returned Vif-APOBEC3G blk 0%, Vif-A3F inh 0%, RGS4 inh 6%, USP1-UAF1 inh -7%, mIDH1 inhibitor 2%, TrxR1 inh 15%[57.1 µM], ALOX12 inh 0% and TrxR1 substrate 7%[57.1 µM].
For COc1ccc(-n2cc(-c3ccccc3)nc2SCC(=O)Nc2ccccc2)cc1Cl the results were Vif-APOBEC3G blk 2%, Vif-A3F inh inconclusive, RGS4 inh -12%, USP1-UAF1 inh -18%, mIDH1 inhibitor -7%, TrxR1 inh 7%[57.1 µM], ALOX12 inh -15% and TrxR1 substrate -4%[57.1 µM].
O=C1N2CCCc3cccc(c32)C12Nc1ccccc1S2 (centres undefined) was read as Vif-APOBEC3G blk -8%, Vif-A3F inh -2%, RGS4 inh 0%, USP1-UAF1 inh -15%, mIDH1 inhibitor 1%, TrxR1 inh 5%, ALOX12 inh 25µM* and TrxR1 substrate -7%.
CC(C)CCn1c(=O)c2ccccc2n2c(CN3C(=O)NC4(CCC(C)CC4)C3=O)nnc12 (centres undefined) was read as Vif-APOBEC3G blk -2%, Vif-A3F inh 1%, RGS4 inh -10%, USP1-UAF1 inh -19%, mIDH1 inhibitor 0%, TrxR1 inh 7%, ALOX12 inh 14% and TrxR1 substrate 9%.
